# Screens as filed in PubChem BioAssay.
# 26S disassembly: blocks ATP-dependent breakdown of the yeast 26S proteasome; anti-FLAG beads, GFP-proteasome disassembly, flow cytometry; inhibition of disassembly, % (concentration not given with the values); 24,000 tested, 0.2% active; AID 751;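 active = above 40%; inconclusive = likely self-fluorescent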;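 also: plate controls were ATP control with full disassembly for no effect and ATP-gamma-S intact proteasomes for full effect; higher percent means more bead fluorescence retained so stronger block of disassembly; stock transfer was 100 nL into about 10 µL; wells with too few beads may also be inconclusive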
# VCAM-1 up: boosters of cytokine-driven VCAM-1 levels – cell-based, plate reader, pooled HUVEC, TNFa stimulus (AID 455); augmentation, % at 5 µM; 10,000 tested, 0.2% active; HUVEC TNFa-induced VCAM-1 immunofluorescence, plate reader; numbers were filed only for top-ranked candidate wells;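 active = a compound raising TNF-alpha-driven VCAM-1 surface staining, with its hit status upheld on visual or statistical review; inactive = the rest, including hits rejected on review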;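 also: 0% = TNFa with vehicle and 100% = strongest image-checked hit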
# Starred values were filed as active, the others as inactive; i = inactive; ? = inconclusive; . = not tested or not shown. A portion of the library; count on the stated rates, not on these rows.
26S disassembly | VCAM-1 up | molecule
-0.2 | . | O=C(CN1CCN(Cc2ccccc2)C1=O)NCc1ccc(Cl)cc1
-2.2 | . | CCCN1C(=O)c2cc(C(=O)NCCc3cccc(C)c3)ccc2C1O (configuration not stated)
1.5 | i | c1ccc2c(SCc3cn4cccnc4n3)ncnc2c1
0.0 | . | COC(=O)C(O)(NC(=O)OCc1ccccc1)C(F)(F)F (configuration not stated)
0.6 | . | COc1ccc(-n2c(=O)c3ccccc3n(CC(=O)NC3CCCCC3)c2=O)c(OC)c1
-0.8 | . | COc1cc(OC)c(NC(=O)CCNC(=O)Cn2cnc3ccccc3c2=O)cc1Cl
1.5 | i | O=C(NCc1ccco1)c1cnn2c(C(F)(F)F)cc(-c3ccco3)nc12
0.0 | i | COCCc1ccc(OCC(O)CNC(C)C)cc1 (configuration not stated)
-0.5 | . | COc1ccc(CCNC(=O)c2cnc3n(c2=O)CCS3)cc1OC
0.7 | . | Cc1ccc(CN2CCN(CC(=O)N3CCC(C(N)=O)CC3)C2=O)cc1
-3.7 | . | COc1cccc(C2c3c(oc4ccccc4c3=O)C(=O)N2c2ccccn2)c1 (configuration not stated)
0.7 | . | COc1ccc(S(=O)(=O)NC(CC(=O)NC2CCCC2)c2ccco2)cc1 (configuration not stated)
-1.8 | . | NC(=O)CSc1nnc(Cn2c(=O)sc3ccccc32)n1-c1cccc(Cl)c1
-1.2 | . | CCOC(=O)CSc1nc2c(c(=O)n(C)c(=O)n2C)n1Cc1ccccc1F
-0.1 | . | Cn1cnnc1SCc1ccccc1Br

26S disassembly | VCAM-1 up | molecule
-0.2 | . | CCC(=O)N(c1ccc(F)cc1)C1C=CS(=O)(=O)C1 (configuration not stated)
0.4 | . | CCOC(=O)N1CCC(NS(=O)(=O)c2ccc3c(c2)OCC(=O)N3)CC1
2.0 | . | COc1ccc(CNC(=O)c2ccc(NS(=O)(=O)c3c(C)noc3C)cc2)cc1
-3.8 | i | CC1CN(S(=O)(=O)c2ccc(Cl)c(C(F)(F)F)c2)CC(C)O1 (configuration not stated)
0.5 | . | Cc1nc(CSc2nnc3scc(-c4ccccc4)n23)cs1
-3.0 | . | COc1ccc(CCNS(=O)(=O)c2ccc3c(c2)oc(=O)n3C)cc1OC
1.4 | i | CCOC(=O)c1c(NC(=O)c2ccoc2C)sc2c1CCC2
-1.0 | . | Cc1cc(NC(=O)CCN2C(=O)c3ccccc3C2=O)no1
-0.3 | . | Cc1nc2ncnn2c(C)c1CCC(=O)Nc1ccc(S(=O)(=O)N2CCCCCC2)cc1
1.0 | i | CS(=O)(=O)Nc1ccc([N+](=O)[O-])cc1Oc1ccccc1
1.9 | . | CCOCCCNC(=O)C1CCN(S(=O)(=O)CC)CC1
-2.2 | . | COc1ccc(C2C3=C(CC(C)(C)CC3=O)N(CCN3CCOCC3)C3=C2C(=O)CC(C)(C)C3)cc1
-1.1 | . | COc1ccc(C2CC(c3cccc(OC)c3)n3nc(N)nc3N2)cc1 (configuration not stated)
0.0 | . | Cn1c(=O)c2c(nc(NC3CCCCC3)n2CC(=O)C23CC4CC(CC(C4)C2)C3)n(C)c1=O
-0.4 | i | Cc1ccc(C(=O)OCC(=O)c2ccc(Cl)s2)s1

26S disassembly | VCAM-1 up | molecule
-0.1 | i | O=C(c1ccc2c(c1)OCCO2)C1CCN(C(=O)c2ccc(F)cc2)CC1
-0.1 | i | COc1ccccc1-n1nnnc1SCc1ccccc1
1.8 | . | Cc1ccc(N2Cc3ccccc3OC(C)C2=O)cc1 (configuration not stated)
0.9 | i | Cc1ccc(-c2noc(CN3CCN(c4ccccc4F)CC3)n2)cc1
-2.2 | i | CCCCCc1c(C)nc(N2CCc3ccccc32)[nH]c1=O
0.5 | i | COc1cc(CN(C)CC(=O)c2[nH]c(C)c(C(C)=O)c2C)ccc1OC(F)F
5.3 | . | CC(C)(C)c1ccc(S(=O)(=O)NCCc2ccncc2)cc1
-0.2 | . | CC(=O)c1ccc2c(c1)Nc1ccccc1S2
1.9 | . | COC(=O)c1cccc(Oc2nc3c(c(=O)n(C)c(=O)n3C)n2Cc2ccc(C)cc2)c1
-0.7 | . | CCOC(=O)Cn1c(=O)oc2cc(S(=O)(=O)N3CCC(N4CCCCC4)CC3)ccc21
0.6 | i | O=C1c2ccccc2C(=O)N1CNc1ccccc1
1.1 | i | Cc1cccc(NC(=O)c2cnc3sccn3c2=O)n1
1.1 | . | COc1cc(NC2c3ncccc3C(=O)N2Cc2ccco2)cc(OC)c1 (configuration not stated)
-0.5 | i | CC(=O)N(C(C)=O)c1cccc2c(N(C(C)=O)C(C)=O)cccc12
? | . | CNc1nn(-c2cccc(Cl)c2)nc1N

26S disassembly | VCAM-1 up | molecule
-0.8 | . | COc1ccc2c(c1OC)C(=O)N(C(C)C(=O)O)C2=O (configuration not stated)
0.9 | i | CCn1ncc(Cl)c1C(=O)Nc1ccncc1
2.2 | . | COc1cccc(CNC(=O)CN(C)S(=O)(=O)c2cnc[nH]2)c1
-0.3 | i | S=c1[nH]c2ccc(Cl)cc2[nH]1
-1.0 | . | O=C(Nc1ccc2c(c1)OCO2)C1CCN(S(=O)(=O)c2cccc3cccnc23)CC1
-2.4 | i | CCSc1nc2c(c(=O)n1CC)SC(C)C2 (configuration not stated)
2.9 | . | CCn1c(=S)sc2c(=O)n(-c3ccccc3)c(SC)nc21
0.7 | . | COc1ccc(CNC(=O)c2cccc(N3CCCC3=O)c2)cc1
0.2 | i | COc1cccc(C(=O)N2CCCC(c3nc(-c4cccs4)no3)C2)c1 (configuration not stated)
-0.6 | . | CN1C(=C2C(=O)OC(C)(C)OC2=O)Sc2ccccc21
-1.4 | . | CC(C)C(NS(=O)(=O)c1ccc(Br)s1)C(=O)O (configuration not stated)
-1.1 | . | C=CCNc1oc(COc2ccc(C)cc2)nc1C#N
-2.4 | . | Cc1ncc2c(c1OC(=O)c1ccccc1)COC(C)(C)OC2
-0.1 | . | COC(=O)c1ccc(CSc2nc3c(cnn3-c3ccccc3)c(=O)[nH]2)o1
0.1 | . | O=C(CSc1nnc(COc2ccccc2)o1)Nc1nccs1

26S disassembly | VCAM-1 up | molecule
1.7 | . | Cc1cc2c(cc(C(=O)NCCCN3CCOCC3)n2Cc2ccc(Cl)cc2)o1
-0.9 | . | COc1ccc(S(=O)(=O)NC(CC(=O)N2CCc3ccccc32)c2ccco2)cc1 (configuration not stated)
0.3 | . | COc1ccc(NC(=O)Nc2cccs2)cc1OC
-0.6 | . | Cc1cccn2cc(CNC(=O)CC3CCCC3)nc12
0.1 | i | COc1ccc(C)cc1NC(=O)C1CCN(S(=O)(=O)c2cccc3cccnc23)CC1
-2.2 | i | Cc1cc(NS(=O)(=O)c2ccc(NC(=O)C(C)N3C(=O)c4ccccc4C3=O)cc2)nc(C)n1 (configuration not stated)
2.5 | . | COc1ccc(-c2nc(-c3ccc(NC(=O)c4ccc(Br)o4)cc3)no2)cc1OC
3.1 | i | CC1CC(C)CN(CC(=O)Nc2ccc(S(N)(=O)=O)cc2)C1 (configuration not stated)
0.1 | i | COCCCNC(=O)CCn1c(=O)c2ccccc2n(CC(=O)Nc2ccc(C)cc2C)c1=O
9.8 | . | O=C(CSCc1cnn(-c2ccccc2)c1-n1cccc1)NCc1cccs1
0.1 | . | CCOC(=O)N1CCN(C(=O)CSc2nnc(-c3cc(OC)ccc3OC)o2)CC1
-0.9 | . | COCC(=O)NCc1ccc2c(c1)cc(C)n2C
-1.4 | i | O=C1N=C(N2CCOCC2)CS1
0.8 | . | O=C(CNS(=O)(=O)c1cccs1)Nc1ccc2c(c1)OCCO2
1.5 | i | Cc1cc(C)c(NC(=O)C2CCCN2CCO)c(C)c1 (configuration not stated)

# Single records, as listed above. Order of values: 26S disassembly	VCAM-1 up
# COc1ccc(NC(=O)Nc2cccs2)cc1OC in the list: 0.3	.
# COc1ccc(-c2nc(-c3ccc(NC(=O)c4ccc(Br)o4)cc3)no2)cc1OC in the list: 2.5	.

# More records.
26S disassembly | VCAM-1 up | molecule
3.3 | i | COc1ccc(C(=O)N2CCSC2=S)cc1OC
1.7 | i | Cc1ccc2cc(CN(CCN3CCCC3)C(=O)Nc3ccc(F)cc3)c(=O)[nH]c2c1C
0.5 | . | O=C(NC1CCCC1)c1cnn2c(C(F)(F)F)cc(-c3ccco3)nc12
0.5 | i | CN1CCN(Cc2nc3c(c(=O)n(C)c(=O)n3C)n2Cc2ccccc2Cl)CC1
0.5 | . | Cc1ccc2cc3cc(C(=O)NCCCN4CCCCCC4)oc3nc2c1
-1.5 | . | CCN(CC)C(=O)c1cc(-c2ccccc2OC)on1
-2.2 | i | COc1ccc(C)cc1NS(=O)(=O)c1ccc(NS(=O)(=O)c2ccc(NC(C)=O)cc2)cc1
-2.6 | i | O=C(CSc1nnc(-c2cnccn2)n1Cc1ccco1)c1ccc(Cl)cc1
? | i | N#Cc1ccccc1Cn1c(=O)n(Cc2ccc(C(=O)NCc3ccco3)cc2)c(=O)c2ccccc21
-0.9 | . | Nc1nc(Nc2cccc(C(F)(F)F)c2)nc(C(F)(F)F)n1
-1.0 | . | O=C(NCc1ccccn1)C1CCC(=O)N1C1CCCC1 (configuration not stated)
-0.5 | i | Cc1ccc(-n2ncc3c(Nc4c(C)n(C)n(-c5ccccc5)c4=O)ncnc32)c(C)c1
1.4 | . | COc1ccc(NC(=O)N(C2CCCCC2)C(C)c2ccco2)c(OC)c1 (configuration not stated)
-0.1 | i | CCOC(=O)N1CCN(C(c2ccc(Cl)cc2)c2sc3nc(C)nn3c2O)CC1 (configuration not stated)
1.2 | . | O=C(NCc1ccco1)c1ccc(CS(=O)(=O)Cc2ccc(F)cc2)o1

# Next section; it opens with the 7 that closed the last part.
26S disassembly | VCAM-1 up | molecule
? | i | N#Cc1ccccc1Cn1c(=O)n(Cc2ccc(C(=O)NCc3ccco3)cc2)c(=O)c2ccccc21
-0.9 | . | Nc1nc(Nc2cccc(C(F)(F)F)c2)nc(C(F)(F)F)n1
-1.0 | . | O=C(NCc1ccccn1)C1CCC(=O)N1C1CCCC1 (configuration not stated)
-0.5 | i | Cc1ccc(-n2ncc3c(Nc4c(C)n(C)n(-c5ccccc5)c4=O)ncnc32)c(C)c1
1.4 | . | COc1ccc(NC(=O)N(C2CCCCC2)C(C)c2ccco2)c(OC)c1 (configuration not stated)
-0.1 | i | CCOC(=O)N1CCN(C(c2ccc(Cl)cc2)c2sc3nc(C)nn3c2O)CC1 (configuration not stated)
1.2 | . | O=C(NCc1ccco1)c1ccc(CS(=O)(=O)Cc2ccc(F)cc2)o1
0.8 | . | CCN(CCCNC(=O)CC(C(=O)N1CCc2ccccc21)n1ccnc1)c1ccccc1 (configuration not stated)
-0.2 | . | COc1ccc(C(=O)NCc2nnc(SCC(=O)N3CCCCC3)o2)cc1OC
0.4 | i | O=C(Cn1ccc2ccccc2c1=O)NCCC(=O)N1CCN(C2CCCCC2)CC1
1.9 | . | O=C(c1oc(=O)c2ccccc2c1-c1ccccc1)N1CCOCC1
0.7 | i | COc1cccc(S(=O)(=O)Nc2ccc(C(=O)N3CCN(C(=O)c4ccco4)CC3)cc2)c1
-3.7 | i | CN(C)C(CNc1nnnn1-c1ccccc1)c1ccco1 (configuration not stated)
3.4 | i | C=CCSC1=C(C#N)C(c2ccccc2C)CC(=O)N1 (configuration not stated)
-0.4 | . | COc1cc(C)c(C(N)=O)c(OC)n1
-1.1 | . | O=C1C(C=NCc2ccccn2)=C(O)c2ccccc21
-3.0 | i | Cc1nnc(SCCCn2c(N3CCCCC3)nc3c2c(=O)[nH]c(=O)n3C)s1
-0.3 | . | Cc1csc(NC(=O)C2CCCN2C(=O)Oc2ccccc2)n1 (configuration not stated)
-0.5 | . | COC(=O)CCN(C)CCC(=O)OC
5.3 | . | O=c1cc(Nc2ccc3c(c2)OCCO3)[nH]c(=O)n1Cc1ccc(F)cc1
0.8 | i | COc1cc(NC(=O)c2nccnc2C(=O)O)cc(OC)c1
2.4 | . | CC(NS(=O)(=O)c1ccc(Cl)cc1)C(c1cccs1)N1CCN(C)CC1 (configuration not stated)

26S disassembly | VCAM-1 up | molecule
-0.7 | . | O=C(c1csc2c1CCCCC2)N1CCN(c2ncccn2)CC1
1.4 | i | Cc1ccccc1S(=O)(=O)Cc1ccc(C(=O)NCc2cccnc2)o1
1.4 | i | CC(C)N(Cc1nc(-c2ccc(Cl)cc2)no1)C(=O)CN(C)S(=O)(=O)c1ccc(Cl)cc1
-1.1 | . | COCCNC(=O)C1c2cc(OC)c(OC)cc2C(=O)N(C)C1c1cccnc1 (configuration not stated)
-2.9 | i | O=C1CC(c2cccc(Cl)c2)Cc2nc(N3CCN(c4ccccc4)CC3)ncc21 (configuration not stated)
4.0 | i | COc1ccccc1NC(=O)c1oc2ccccc2c1NC(=O)c1cc(OC)c(OC)c(OC)c1
-0.7 | . | Cc1nccc2[nH]c(=O)c(C(=O)NC3CCCCC3C)cc12 (configuration not stated)
-2.1 | i | Clc1cccc(-c2nn3c(Cn4cnc5ccccc54)nnc3s2)c1
-0.4 | i | N#CC(C(=O)c1ccco1)c1ccccn1 (configuration not stated)
-2.1 | . | CCCNC(=O)Cn1cnc2sc(C(=O)NCCN(CC)CC)c(C)c2c1=O
-1.5 | . | O=C(O)C1CCCCC1C(=O)Nc1ccc(Cl)cc1Cl (configuration not stated)
1.0 | i | CCOC(=O)NC1(NCc2ccccc2)Oc2ccccc2O1
0.0 | . | COc1ccc(CCNS(=O)(=O)c2ccc3c(c2)CCN3C(=O)C2CC2)cc1OC
-1.7 | i | Cn1c(=O)cc(SCC(=O)NCC2CCCO2)c2ccc(Cl)cc21 (configuration not stated)
-2.5 | . | O=C1C(c2ccc(F)cc2)N(C2CCCCC2)C(=O)CN1C1CCCC1 (configuration not stated)
0.8 | . | CCCN(CCC)S(=O)(=O)c1cc(Br)cc2c1N(C(=O)CC)CC2
